From PubChem BioAssay
AID504770: growth inhibitors of E. coli YBA685 in a screen for V. cholerae RctB (chromosome II replication) inhibitors; 130,000 tested, 0.27% active; E. coli YBA685 rctB-dependent plasmid, OD600 growth, 3 h; stronger effect = lower value; z-score (test concentration not listed);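 active = z-score under -2 on both plates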;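 also: wells of about 30 µL received 100 nL stock; score is relative to mean and SD of the test wells; the first replicate is given; strong numbers were not always called active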
CapD inh: inhibitors of Bacillus anthracis CapD enzyme. z-score (test concentration not listed). 140,000 tested, 0.23% active. purified CapD enzyme, fluorescence intensity read-out; stronger effect = lower value; some hits fall short of the stated cut. AID 492967;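 active = z-score under -4 in either of two replicates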;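 also: stock transfer was 100 nL into about 40 µL; score is relative to mean and spread of the plate; one replicate is shown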
Active calls of the source: *; . = no result given; & = joins results of further samples. These rows are one share of the data (hit frequency here may not be typical).

molecule,AID504770,CapD inh
O=C(CSc1nccc(-c2cccs2)n1)c1cc(-c2ccccc2)no1,-0.65,-1.3
CCOC(=O)c1ccc(NC(=O)c2cc(=O)[nH]c3ccccc23)cc1,1.1,1.5
CCOc1ccc(NC(=O)C23CC4CC(CC(O)(C4)C2)C3)cc1,0.55,.
Cc1ccc(S(=O)(=O)NCCC(=O)N2CCC2)cc1C,-0.15,.
CN(C)c1ccc(-c2ccncc2)cc1,0.8&0.4,28&23
COc1ccc(-n2ccc(-c3ccccc3)nc2=S)cc1,0.35,-1.5
OC(C#CC(O)(c1ccccc1)c1ccccc1)c1ccc(F)cc1 (centres undefined),0,0.74
CC1=C(C(=O)OC2CCCCC2)C(c2ccc(Cl)c(Cl)c2)CC(=O)N1 (centres undefined),.,-0.27

In a second layout: entries from further up.
The line under a structure holds: AID504770	CapD inh
> O=C(CSc1nccc(-c2cccs2)n1)c1cc(-c2ccccc2)no1
  -0.65	-1.3
> CCOC(=O)c1ccc(NC(=O)c2cc(=O)[nH]c3ccccc23)cc1
  1.1	1.5
> CCOc1ccc(NC(=O)C23CC4CC(CC(O)(C4)C2)C3)cc1
  0.55	.
> Cc1ccc(S(=O)(=O)NCCC(=O)N2CCC2)cc1C
  -0.15	.

(list continues)
molecule,AID504770,CapD inh
Cc1cc(OC(C)c2nc(-c3nonc3N)no2)ccc1Cl (centres undefined),-0.35,-0.48
Cc1nnsc1C(=O)NCC1COc2ccccc2O1 (centres undefined),-0.3,1.6
CC12CCC(=O)N1c1ccccc1C(=O)N2c1ccccc1 (centres undefined),0.4,0.18
Cc1ccc(C(=O)C(C)OC(=O)Cn2c(C)csc2=O)cc1 (centres undefined),1.2,.
COc1ccccc1CN(C)CCN,-0.6,.
O=C1CSC(c2cccs2)C1 (centres undefined),.,0.08
CC(C)C(NC(=O)c1ccc(C23CC4CC(CC(C4)C2)C3)cc1)C(=O)NCC1CCCO1 (centres undefined),0.05,0.24
NC1=C(c2ccc3ccccc3n2)C(=O)CS1,0,-1.5
Cc1ccc(NC(=O)Cn2nnn(-c3ccccc3)c2=O)cc1C,0.65,.
Cc1ccc(-n2c(C)cc(C(=O)O)c2C)cc1,-0.35,-1.1
O=C(O)CCC(=O)Nc1ccn(Cc2ccc(Cl)cc2)n1,0.3,0.39
Cc1cccc(OCc2nnc3n2-c2ccccc2SC3)c1,-0.2,.
O=C(O)CCC1(C(=O)O)NC(c2ccc(O)cc2O)C2C(=O)N(Cc3ccccc3)C(=O)C21 (centres undefined),-1.5,17
CCOc1cc(C2CC(=O)NC(SCC(=O)Nc3ccc(C)cc3C)=C2C#N)ccc1O (centres undefined),.,-0.26
Cc1ccc(CC(S)C(=O)O)cc1C (centres undefined),0.35,.
COc1ccc(C(=O)Nc2ccn(-c3ccccc3)n2)c(OC)c1,0.05,0.81
CN1CCN(CC(=O)N2c3ccccc3C(=O)Nc3cccnc32)CC1,0.15,0.15&-0.47
CCC1C/C(=C/c2ccccc2OC)C(=O)/C(=C/c2ccccc2OC)C1 (centres undefined),-0.2,0.37
Fc1ccccc1CSc1nnc2c(n1)[nH]c1ccccc12,-3.6,.
Cc1nc(-c2ccc(C(F)(F)F)cc2)sc1C(=O)NNC(=O)OCCc1ccc([N+](=O)[O-])cc1,.,0.76
O=C(c1n[nH]c(=O)c2ccccc12)N1CCC(Cc2ccccc2)CC1,0.25,.
CC(C)(C)n1cnc2cc(N=Cc3ccccc3O)ccc21,-0.7,.
COC(=O)/C=C1\S/C(=N\N=C\c2ccccc2)NC1=O,-1.4,-0.005
N#Cc1ccc(OCC(=O)N/N=C2\CCc3ccccc32)cc1,0.15,.
O=S(=O)(NCc1cn2ccsc2n1)c1ccc2c(c1)OCCO2,-0.65,.
O=C(O)c1ccccc1C(=O)Nc1cccc2ccccc12,-0.6,9.4
CCOC(=O)N1CCN(C(=O)c2ccc3c(=O)n(-c4cc(OC)ccc4OC)c(=S)[nH]c3c2)CC1,.,-0.54
O=C1CNc2c(F)c(F)c(F)c(F)c2O1,0.15,.
COc1cc(C2CC(=O)c3c([nH]c(C(=O)OCCOc4ccccc4)c3C)C2)cc(OC)c1OC (centres undefined),-2.4,-0.36
O=C(Cc1nc2ccccc2[nH]1)NCc1ccccn1,-0.85,-1.4
CC(NC(=O)c1ccccc1)c1nnc(SCC(=O)c2ccccc2)n1C (centres undefined),2.2,-0.54
Cc1ccc(-c2nn(CCO)c(=O)c3ccccc23)cc1C,0,0.53
O=C(COC(=O)c1ccc(S(=O)(=O)N2CCCCC2)cc1)c1ccccc1,0.6,-0.29
CCOC(=O)COc1cc(Br)c(C2Nc3ccc4ccccc4c3C3=C2C(=O)CC(C)(C)C3)cc1OC (centres undefined),.,21
CCOC(=O)[C@@H]1Nc2ccc(Br)cc2[C@@H]2C=CC[C@H]12,-0.15,-0.58
Cc1ccc(S(=O)(=O)N2CCN(Cn3nnc(-c4ccccc4)n3)CC2)cc1,-0.45,.
Fc1ccc(-c2oncc2-c2nnnn2-c2ccc(Cl)cc2)cc1,0.6,-0.17
COC(=O)c1ccc(CSC(=N)N)cc1,0.25,-0.38
O=C1C(=O)N(CCO)C(c2ccccc2)/C1=C(/O)c1ccc(Br)cc1 (centres undefined),.,-0.015
COc1ccc(C(=O)NCC(C)(C)SCc2c(C)cc(C)cc2C)cc1,.,-0.2

Profiles as entered above. Order of screens: AID504770	CapD inh
O=C1C(=O)N(CCO)C(c2ccccc2)/C1=C(/O)c1ccc(Br)cc1 (centres undefined) as listed: .	-0.015
O=C(COC(=O)c1ccc(S(=O)(=O)N2CCCCC2)cc1)c1ccccc1 as listed: 0.6	-0.29
COC(=O)c1ccc(CSC(=N)N)cc1 as listed: 0.25	-0.38
Cc1ccc(S(=O)(=O)N2CCN(Cn3nnc(-c4ccccc4)n3)CC2)cc1 as listed: -0.45	.
COc1ccc(C(=O)NCC(C)(C)SCc2c(C)cc(C)cc2C)cc1 as listed: .	-0.2

The list continues:
molecule,AID504770,CapD inh
N#CCC(=O)NCc1cccs1,-0.75,-0.095
COc1cc(/C=C2N=C(/C=C/c3cccc(Cl)c3Cl)OC\2=O)cc(OC)c1OC,.,-0.26
O=C(c1ccc(Cl)cc1)N1CCCCC1,1.2,-0.16
COc1cc(OC)c(CN2CCN(S(=O)(=O)c3c(C)cccc3Cl)CC2)cc1Br,.,0.19
Cc1ccc2c(c1)-c1c(ssc1=S)C(C)(C)N2C(=O)CN1C(=O)CCC1=O,.,-0.18
NCC1CCCN(CCO)C1 (centres undefined),-0.75,.
O=C(COc1ccc2ccc(=O)oc2c1)c1ccc2c(c1)OCCO2,-0.05,.
COc1ccc(/C(C)=N/NC(=O)c2cc(C3CC3)[nH]n2)cc1OC,0.05,-0.025
O=C(CSc1nncs1)NCCCc1ccccc1,1.9,.
Cc1cc(C(=O)COc2ccccc2C#N)c(C)n1-c1cccc(S(=O)(=O)N2CCOCC2)c1,-0.05,.
CC1CCc2c(sc(NC(=O)CSc3nncn3C)c2C#N)C1 (centres undefined),.,0.44
CC1=NN(c2ccc(C)cc2)C(=O)C1=C1SCCS1,.,-0.67
COc1cc(C(=O)NCCn2ccc3ccccc32)cc(OC)c1OC,-0.55,0
O=C(N/C=C/c1ccccc1Cl)OCc1ccc(Cl)cc1,1.8,-0.22
CN(C)C(=O)/C=C/c1ccc2c(c1)OCO2,-0.45,.
O=C1c2ccccc2C(=O)N1CC(c1ccco1)N1CCCCC1 (centres undefined),0.1,.
C1CCN=C(NCC2(N3CCCCC3)CCCCC2)CC1,-0.15,.
COc1cc(S(=O)(=O)N2CCN(C)CC2)ccc1Cl,-0.15,0.12
CCOC(=O)C1=C(C)N=c2s/c(=C/c3cccc(OC)c3)c(=O)n2C1c1ccc(OC)c(OCC)c1 (centres undefined),.,-0.53
Cc1cc(O)c(Cc2cc(Cl)c3cccnc3c2O)c(=O)o1,0.5,.
S=C(NCc1ccco1)N1CCOCC1,-1.1,0.065
COc1nc(C)c(-c2csc(C)n2)cc1C#N,.,-0.04
C/C(=N\NS(=O)(=O)c1ccc(Br)cc1)c1cccs1,-0.2,-0.41
O=C(O)c1csc(Br)c1Br,-0.45,.
CCc1cc(-c2[nH]ncc2-c2cnn(-c3ccccc3)c2)c(O)cc1O,0.3,.
COc1cc(C(=O)Nc2ccccc2C(=O)N2CCC(c3c[nH]c4ccccc34)CC2)cc(OC)c1OC,.,-0.45
CCOC(=O)c1c(NC(=O)c2cc(OC)c(OC)c(OC)c2)sc(C(=O)Nc2cccc(C(F)(F)F)c2)c1C,.,-0.11
O=C(O)CCc1c[nH]c2ccccc12,.,-0.05
O=S(=O)(c1ccc(Cl)cc1)N1CCCC(CO)C1 (centres undefined),.,0.42
Cc1ccc(C(=O)CCC(=O)Nc2nnc(C)s2)cc1,-1.5,0.38
O=C(OCCN1C(=O)c2cccc3c(N4CCOCC4)ccc(c23)C1=O)c1ccccc1Cl,.,-0.055
COc1ccccc1NC(=O)CC(O)(C(F)(F)F)C(F)(F)F,0.2,-0.025
Cc1coc2cc3oc(=O)c(CC(=O)NCc4ccco4)c(C)c3cc12,0.35,7.7
Cc1ccc(C(=O)C(C)c2c(O)c3ccccc3oc2=O)c(Cl)c1 (centres undefined),0.1,0.78
CC(C)(C)C1C/C(=C\c2cccc(Br)c2)C(=O)/C(=C/c2cccc(Br)c2)C1 (centres undefined),.,-0.6
COc1cc(C2Nc3ccc(Cl)cc3C(c3ccccc3)O2)cc(Br)c1OC (centres undefined),.,0.41
Cc1nn(-c2ccccc2)c(Cl)c1C1C(C#N)=C(N)OC2=C1C(=O)CC(C)(C)C2 (centres undefined),.,-0.44
C=CCc1c(C)nc(SC)[nH]c1=O,-0.3,.
CC(C)OCC(O)CN1CCN(c2ccccc2)CC1 (centres undefined),-0.9,0.17
O=S(=O)(NCCCN1CCOCC1)c1cccs1,.,0.08
COC(=O)c1ccc(S(=O)(=O)Nc2ccc3c(c2)C(=O)OC3)n1C,-0.45,1.4
Cc1cccc2cc3c(nc12)SC(=NCc1ccco1)N(Cc1cccs1)C3,-0.45,.
CCNc1nc(C)c(C(=O)O)s1,0,.
Cc1ccccc1OCc1nc(SCC(=O)NC2CCCC2)n[nH]1,-0.7,.
CS(=O)(=O)N(Cc1ccc(Cl)cc1)c1ncc(C(F)(F)F)cc1Cl,-0.45,0.09
N/C(CN1CCCC1=O)=N\OC(=O)c1ccccc1Cl,-0.55,0.24
CN(C)S(=O)(=O)c1cccc(C(=O)Nc2nc3ccc(F)cc3s2)c1,-0.2,.
COc1ccc(Br)cc1CSc1nnc(-c2cccs2)n1C1CC1,0.5,.
N#Cc1c2c(c(N3CCN(C(c4ccccc4)c4ccccc4)CC3)n3c1nc1ccccc13)CCC2,.,0.08
COc1ccccc1C(=O)NCCC(=O)Nc1ccc(S(N)(=O)=O)cc1,-0.35,.
COc1ccc(N(C(=O)c2cccnc2)S(=O)(=O)c2cccc3cccnc23)cc1,-0.55,-0.7
CC(OC(=O)c1cccc(-n2cnnn2)c1)C(=O)Nc1ccccc1F (centres undefined),0.5,.
CCc1ccc(NC(=O)CCn2cccc2)cc1,0.95,-0.76
O=S(=O)(CCN1CCOCC1)c1ccc(Oc2ccc(S(=O)(=O)CCN3CCOCC3)cc2)cc1,-0.5,.
NS(=O)(=O)c1ccc(N=Cc2ccc3c(c2)OCO3)cc1,.,0.73
CN1C(=O)/C(=C2/Sc3ccc(Cl)cc3N2C)SC1=S,-0.3,-0.09

Further records follow:
molecule,AID504770,CapD inh
CSc1nnc2c3cc(C)ccc3n(C)c2n1,-0.45,0.24
Cc1sc2nc(SCC(=O)N3CCCC3)[nH]c(=O)c2c1C,0.25&-0.8,0.19&-1.1
Cc1cc(C)n(CC(O)CN(c2ccccc2)S(=O)(=O)c2ccccc2)n1 (centres undefined),1.4,0.12
N#CCCn1ccc(NC(=O)c2ccc(Cl)cc2)n1,0.65,0.16
CC(=O)Nc1sc2c(c1C(=O)OCC(=O)c1cc(C)n(C3CC3)c1C)CCCC2,-0.25,.
COc1ccc(-c2cc3ccccc3n2CC(O)CN2CCN(CCO)CC2)cc1 (centres undefined),-0.65,7.7
COc1cc(NC(=O)c2sc3nc(C)nc(N4CCN(c5ccccn5)CC4)c3c2C)cc(OC)c1OC,.,-0.94
COc1ccc(NC(=O)CC(C)(C)n2cccc2)cc1,.,-0.61
CC(=O)NCCOc1cccc2cccnc12,-0.5,2.5
C/C(=N\O)C(C)(C)Nc1ccc(Cl)cc1,0.1,0.41
Cc1nc(NCCNC(=O)c2cccs2)c2c3c(sc2n1)CCCC3,-0.3,.
COc1ccc(C(=O)CSc2n[nH]c(=O)n2Cc2ccco2)cc1,-1.2,-1.2
CC(=O)Nc1nc(NC(C)=O)n(-c2ccccc2)n1,2.4,-0.14
CC1(C)CC(=O)C2=C(C1)N(c1ccccc1C(F)(F)F)C(=O)CC2c1cccs1 (centres undefined),-1.1,-0.19
C=CCn1c(SCC(=O)Nc2sc(C(=O)OC)c(C)c2C(=O)OC)nc2sc(C)c(C)c2c1=O,.,-0.7
CC(Sc1ncnc2c1cnn2-c1ccccc1)C(=O)Nc1ccnn1C(C)C (centres undefined),1.4,.
CCNC(=S)N1CCN(S(=O)(=O)c2ccc(Cl)cc2)CC1,-0.65,0.31
